High-throughput results: PubChem BioAssay, PCMD
Calb biofilm kill – mixtures killing C. albicans biofilm; actives 0.02% (n = 120,000); inhibition, % at 7.6 µM; C. albicans biofilm persisters + clotrimazole, fluorescence viability; primary screen in compound mixtures of four per well;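 active = inhibition above 30.3% in the primary screen of four-compound pools, then above 30% when the compound was retested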;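 note: compounds exposed to preformed 24 h biofilms for 48 h; the number belongs to the whole pool; some results filed as inactive read as strong as hits; inactives centre near 12; 0% = biofilm with clotrimazole alone and 100% = kill control; retested singly at about 60 µM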
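System: C. albicans CAF4-2 wild-type biofilms; Medium: RPMI/MOPS medium, pH 7.0; Reagent: Clotrimazole, 50 µg/mL; Times: biofilm formation 24 h, compound exposure 48 h, 37 °C; Detection: 2-h Alamar Blue fluorescence, 535/590 nm excitation/emission; Evaluation: percent inhibition of biofilm viability.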
The depositor's hits bear a star. These rows are one share of the data (hit frequency here may not be typical).

SMILES | Calb biofilm kill
COc1c(-c2ccc(O)cc2)oc2cc(O)cc(O)c2c1=O | 26
Cc1noc(C)c1COc1ccc(C(=O)O)cc1 | 16
O=[N+]([O-])c1cc(-c2nnc(N3CCOCC3)c3ccccc23)ccc1N1CCOCC1 | 20
CCN(CC)S(=O)(=O)c1ccc2oc(C(=O)N3CCc4ccccc4C3)c(C)c2c1 | 9
CS(=O)(=O)N1CC2CCCN2c2cc(C(F)(F)F)ccc21 (centres undefined) | 11
O=C1CCCC(=O)C1=C1SCCCS1 | 13
C/C(=N/OC(=O)c1c(-c2ccccc2Cl)noc1C)c1cnccn1 | 7
Cc1c(Cl)cccc1NC(CC(=O)c1ccccc1)C(=O)O (centres undefined) | 12
CC(=O)Nc1ccc(S(=O)(=O)Nc2ccc3c(c2)OCCO3)cc1 | 10
CCc1nnc(NC(=O)CSc2nnc(CNc3ccc(OC)cc3)n2C)s1 | 9
Cc1cc(C)c(C(=O)CN2C(=O)NC3(CCC(C)CC3)C2=O)cc1C (centres undefined) | -7
Cc1cc(=O)oc2cc(OCc3ccc(C(=O)OCC(=O)Nc4ccc(N(C)C)cc4)cc3)ccc12 | 8
CC1CC(C)CN(C(=S)Nc2ccc3nc4n(c(=O)c3c2)CCCCC4)C1 (centres undefined) | 7
Cc1onc(-c2ccc(Cl)cc2Cl)c1-c1csc(COc2ccccc2)n1 | 15
Cn1nnnc1SCC(=O)NNC(=O)c1ccc(Cl)cc1 | 4
O=C1c2ccccc2C(=O)C12OC(c1ccccc1)C1(C(=O)c3ccccc3C1=O)C2c1ccc([N+](=O)[O-])cc1 (centres undefined) | 16
CC[n+]1c(C)sc2sc3ccccc3c21 | 13
CC(C)C(C)NC(=O)COC(=O)c1cc(S(=O)(=O)N(C)C)ccc1N1CCCC1 (centres undefined) | 10
NS(=O)(=O)c1ccc(NC(=S)N2CCN(c3ccc(Cl)c(Cl)c3)CC2)cc1 | 4
Cc1cc(C)n(CC2CC(=O)N(c3ccc(Cl)cc3)C2=O)n1 (centres undefined) | 13
Cc1cc(C)c(C#N)c(SCc2ccc(F)cc2)n1 | 16
O=C(O)c1ccc(N/N=C2/CCCc3ccccc32)cc1 | 7
Cc1cc(NC(=O)c2cc(C)on2)n(-c2ccccc2)n1 | 19
COc1ccccc1N1CCN(C(=O)c2ccc(Cl)c(S(=O)(=O)N3CCCC3)c2)CC1 | 8
CCCS(=O)(=O)c1c(S(=O)(=O)CCC)c2c3ccccc3ccn2c1C(=O)OC | 10
COC(=O)CCNc1n[nH]c(=O)[nH]c1=O | 10
CCOC(=O)CN(C(=O)COc1nc(C)cc(C)c1C#N)c1cccc(Cl)c1 | 12
CC(C)c1onc(C(=O)Nc2cccc(Cl)c2)c1[N+](=O)[O-] | 14
O=c1[nH]nc(CNc2cccc(C(F)(F)F)c2)c2ccccc12 | 8
COc1cccc(OCc2nnc(SCC(=O)NNC(=O)C3CCCCC3)n2C)c1 | 17
CC(C)(C)NS(=O)(=O)c1cc(C(=O)Nc2sccc2C#N)ccc1Cl | 19
CCN(CC)S(=O)(=O)c1ccc(C(=O)NC(=S)N(CCC#N)Cc2cccnc2)cc1 | 7
CCN(CC)S(=O)(=O)c1ccc(N2CCCC2)c(NC(=O)Cc2ccccc2)c1 | 17
O=C(NCCCN1CCOCC1)C(=O)N/N=C/c1c(Cl)cccc1Cl | 17
CCCCn1c(=O)nc2n(-c3ccc(Cl)cc3)c3ccccc3cc-2c1=O | 8
Cn1cccc1/C=N/NC(=O)C12CC3CC(CC(C3)C1)C2 | 19
CCC(OC(=O)CN1C(=O)C(=O)c2ccccc21)C(=O)Nc1ccc(S(N)(=O)=O)cc1 (centres undefined) | 10
O=[N+]([O-])c1cccc2ccc(/C=C/c3ccc(F)cc3)nc12 | 11
CCOc1cc(/C=N/O)cc(Br)c1OCC(=O)NCc1ccccc1 | 3
COc1ccc(CCN2CN(S(=O)(=O)c3ccc(OC)cc3)c3nc4ccccc4nc32)cc1 | 11
C=CCc1cc(OC)ccc1OCCOCCC(C(=O)OCC)C(=O)OCC | 8
CC(/C=C\c1ccccc1)=C/C(=O)O | 5
CCOC(=O)C1CCN(c2nc(C)cc(C)c2C#N)CC1 | 11
CN(C)S(=O)(=O)NCCNc1ccc(C(F)(F)F)cc1[N+](=O)[O-] | 1
COc1ccc2[nH]c(C(=O)N(C)c3ccc(F)cc3F)cc2c1 | 15
O=C(Nc1ccc(F)c(Cl)c1)N1CCCC1 | 14
CCOC(=O)c1[nH]ncc1CN1CCCC(C(=O)c2cccc3ccccc23)C1 (centres undefined) | 14
COc1ncnc2c1sc1nc(-c3ccccc3)c3c(c12)CCCC3 | 10
CC1(C(=O)OCC(=O)Nc2ccc(C(N)=O)cc2)CC1(Cl)Cl (centres undefined) | 6
Cc1ccc(O)c(CCc2ccccc2)n1 | -7

Next part.
SMILES | Calb biofilm kill
CCn1cc(S(=O)(=O)N2CCN(Cc3cccc(Cl)c3)CC2)cn1 | 5
COc1ccc(CNC(=O)N2CCN(c3ccc(F)cc3)CC2)cc1Cl | 22
COc1cc(CNCCN(C)C)ccc1OCc1c(F)cccc1Cl | 5
CCc1ccc(NC(=O)CSc2nc3ccsc3c(=O)n2CCCCCC(=O)O)cc1 | 11
C=CCNC(=O)NC(=O)COC(=O)/C(C#N)=C/c1ccc(OC)cc1 | 3
CCOP(=O)(OCC)C(C)(C)NC(=O)Nc1ccc(Cl)c(Cl)c1 | 23
CC(C)C[C@H](NC(=O)c1nc[nH]c1C(=O)N1CCC(C)CC1)C(=O)OC(C)(C)C | 12
CCN(c1ccccc1)S(=O)(=O)c1ccc(OC)c(NC(=O)CN(C)C)c1 | 6
Cc1ccc(S(=O)(=O)/C(=C/Cl)NC(=O)c2ccccc2)cc1 | 8
O=C(NCc1ccc2c(c1)OCO2)c1ccc2c(c1)N(Cc1c(F)cccc1Cl)C(=O)CS2 | 19

Look-ups from the results shown.
Value of `CCN(CC)S(=O)(=O)c1ccc(N2CCCC2)c(NC(=O)Cc2ccccc2)c1` under Calb biofilm kill: 17
Value of `CC(=O)Nc1ccc(S(=O)(=O)Nc2ccc3c(c2)OCCO3)cc1` under Calb biofilm kill: 10
Value of `CC(C)(C)NS(=O)(=O)c1cc(C(=O)Nc2sccc2C#N)ccc1Cl` under Calb biofilm kill: 19
Value of `CCc1nnc(NC(=O)CSc2nnc(CNc3ccc(OC)cc3)n2C)s1` under Calb biofilm kill: 9

The results go on.
SMILES | Calb biofilm kill
CC(C)(C)C(=O)Nc1nnc(SCC(=O)NCc2ccco2)s1 | 17
COc1cccc(C(C)NC(=O)Nc2ccccc2Cl)c1 (centres undefined) | 7
Cc1ccc2nc(-c3ccccn3)c(NC3CCCC3)n2c1 | 5
C/C(=N\Nc1ccc(S(=O)(=O)N2CCOCC2)cc1[N+](=O)[O-])C(C)C | 4
Cc1cc(Oc2ccc3ccccc3c2)nc(SCC(=O)c2ccccc2)n1 | 11
COc1ccc(-n2c(=S)[nH]c3sc4c(c3c2=O)CCc2ccccc2-4)cc1 | -4
O=C(c1ccccc1F)N1CCN(C2CCC(c3ccccc3)CC2)CC1 (centres undefined) | 16
CC(NC(=S)N1CCOCC1)c1ccccc1 (centres undefined) | 13
Nc1c(C(=O)NC2CC2)sc2nc3c(c(-c4ccco4)c12)CC/C3=C/c1ccco1 | 15
CNc1c(N=Cc2cccnc2)c(=O)n(C)c(=O)n1C | 6
CCC1=C2CC[C@H]3C(=O)N(c4ccccc4)C(=O)[C@H]3[C@H]2[C@@]2(C)C(=NCC(=O)OC)OC(=O)N2C1=O | 10
CCOc1ncccc1C(=O)OCc1cccc([N+](=O)[O-])c1 | 7
Cc1ccc(-n2cnc3c(sc4nc(N5CCOCC5)c5c(c43)CCCC5)c2=O)cc1 | 8
COc1cccc(CN(C)CC(=O)NNC(=O)c2ccc(Cl)cc2)c1 | 17
CCNS(=O)(=O)c1ccc(CCC(N)=O)cc1 | 10
COc1c2c(nc3occc13)C(CC=C(C)C)(OC)C(OC(C)=O)CC2 (centres undefined) | 9
COc1cc(/C=C/C(=O)OCC(=O)Nc2ccc3c(c2)OCCO3)ccc1O | 22
CC(=O)NS(=O)(=O)c1ccc(NC(=O)c2oc3c(Cl)cccc3c2C)cc1 | 22
CCC(=O)NNC(=S)NC(=O)c1ccc(C)cc1 | 10
CC(C)CNC(=S)NC1CC2CCCC(C1)N2C1CCCCC1 (centres undefined) | 6

The last two entries of the section before lead into the next.
SMILES | Calb biofilm kill
CCC(=O)NNC(=S)NC(=O)c1ccc(C)cc1 | 10
CC(C)CNC(=S)NC1CC2CCCC(C1)N2C1CCCCC1 (centres undefined) | 6
CCOc1ccccc1NC(=O)C(OC(=O)c1ccccc1NS(=O)(=O)c1cccs1)c1ccccc1 (centres undefined) | 10
CCN(CC)C(=O)CNc1ccc(C(F)(F)F)cc1[N+](=O)[O-] | 7
O=C(c1cccs1)C1CCCN(Cc2nc(Cc3ccccc3F)no2)C1 (centres undefined) | 9
CC1(C)CN(c2cccc(-c3ccnc4ncnn34)c2)C1=O | 3
CCOC(=O)N1CCC(N2C(=O)c3ccccc3C2Nc2ccc(S(=O)(=O)N(CC)CC)cc2)CC1 (centres undefined) | 14
O=C(CCN1C(=O)/C(=C\c2cccs2)SC1=S)Nc1nccs1 | 6
O=c1[nH]c(SCc2cccc(F)c2)nc2c1CCCC2 | 4
COCCCn1c(=O)/c(=C\c2ccccc2OC(F)F)s/c1=C(/C#N)C(=O)N1CCOCC1 | 14
Cc1ccsc1C(=O)OCC(=O)NCCC1=CCCCC1 | 17
Nc1ccc(C(=O)OCc2nc3c(ccc4ccccc43)[nH]2)cc1 | 12
CCC(C)NC(=O)CSc1ccc(Cl)cc1 (centres undefined) | 10
COc1ccc2c(c1)C=C(CN1CCC(CO)(CCc3ccccc3)CC1)CO2 | 7
Cc1c(Br)c(O)c(Br)c2sc(=O)oc12 | 17
Cc1ccc(Cl)cc1N(CC(=O)Nc1cccc(N(C)S(C)(=O)=O)c1)S(C)(=O)=O | 9
COc1ccc2c(c1)NC(c1cc(Cl)cc(Cl)c1O)c1cccn1-2 (centres undefined) | 13
CSc1ccccc1C(=O)N1CCN(c2ncccn2)CC1 | 11
Cc1c(C(=O)C(=O)NCc2ccco2)c2ccccc2n1C | 20
O=C(COc1nc2ccccc2nc1N1CCOCC1)Nc1cccc(S(=O)(=O)N2CCCCC2)c1 | 20
FC(F)(F)c1ccc(/C=N/NC(=S)NC2CCCCC2)cc1 | 12
Cc1noc(C)c1CC(=O)N1CCCC(C(=O)c2ccc(C(C)(C)C)cc2)C1 (centres undefined) | 10

An excerpt from above in order of molecular weight, low to high.
SMILES | Calb biofilm kill
CCC(C)NC(=O)CSc1ccc(Cl)cc1 (centres undefined) | 10
CSc1ccccc1C(=O)N1CCN(c2ncccn2)CC1 | 11
FC(F)(F)c1ccc(/C=N/NC(=S)NC2CCCCC2)cc1 | 12
Cc1c(Br)c(O)c(Br)c2sc(=O)oc12 | 17
COc1ccc2c(c1)NC(c1cc(Cl)cc(Cl)c1O)c1cccn1-2 (centres undefined) | 13
COc1ccc2c(c1)C=C(CN1CCC(CO)(CCc3ccccc3)CC1)CO2 | 7
O=C(COc1nc2ccccc2nc1N1CCOCC1)Nc1cccc(S(=O)(=O)N2CCCCC2)c1 | 20

Other results follow.
SMILES | Calb biofilm kill
COc1ccc(-c2nn(-c3ccccc3)cc2/C=C\C(=O)Nc2ccc(C(=O)O)cc2)cc1 | 7
CN1CCC(NC(=O)c2ccncc2)CC1 | 1
COc1ccc(CCN(Cc2ccc(C(C)C)cc2)S(=O)(=O)c2ccc(S(=O)(=O)N(C)C)cc2)cc1OC | 16
Cc1nn(-c2ccccc2)c(Oc2ccccc2)c1C=O | 18
C(=C\c1ccccc1)/CN1CCN(Cc2nc(Cc3ccccc3)no2)CC1 | 0
O=C(Nc1cccnc1)c1ccc(-c2cc(Cl)ccc2Cl)o1 | 20
O=C(Nc1ccccc1)C(=O)Nc1cccnc1 | 20
Cn1c(CSCc2ccc(Cl)c(Cl)c2)n[nH]c1=S | 0
COC(=O)c1c(C)cc(C)c2c1CC(C)(C)C2=O | 17
COC(=O)Nc1ccc(S(=O)(=O)N2CCCc3cccc(O)c32)cc1 | 24
COc1nc(C)nc(C)c1Oc1ccc(Cl)cc1Cl | 10
Cc1csc(NC(=O)CSc2ccc3nnc(-c4ccncc4)n3n2)n1 | 12
CCOC(=O)CC(NS(=O)(=O)Cc1ccccc1)c1ccc(C)cc1 (centres undefined) | 7
ON/C=N/C(=S)Nc1ncc(C(F)(F)F)cc1Cl | -28
Cc1cc(C)n(-c2ccc(S(N)(=O)=O)cc2[N+](=O)[O-])n1 | 12
Cc1ccc2c(c1)[nH]c1c(=O)n(Cc3ccco3)cnc12 | 20
COc1ccc2c(c1)O[C@H](c1ccc3c(c1)OCO3)[C@@H](OC(=O)N[C@H](C)C1CCCCC1)C2=O | 9
CC1CCC2C(=O)N(c3ccc(NC4CCCCC4)c([N+](=O)[O-])c3)C(=O)C2C1 (centres undefined) | 9
Cc1nnc2c3ccccc3c(Cl)nn12 | 26
Cc1cc(NC(=O)Nc2cc(Cl)ccc2C)no1 | 5
Cc1cc(C)n(-c2cccc(CN(C)Cc3nc(-c4cnccn4)no3)c2)n1 | 28
COc1ccc(C(CC(=O)Nc2cc(OC)cc(OC)c2)n2cccc2)cc1 (centres undefined) | 7
Cc1cccc(N/C(N)=N/c2nc(C(F)(F)F)cc(=O)[nH]2)c1C | 12
O=C(Nc1nnc(-c2cccs2)s1)C1CC1 | 11
Cc1cc(Cl)ccc1OCCCC(=O)NN | 7
